# Source: PubChem BioAssay
# Vaccinia inh = blocks a specific stage of Vaccinia orthopoxvirus infection; activity change (mCherry), % (no concentration beside the values); 89,000 tested, 0.01% active; Vaccinia-infected cells, mCherry/Venus stage reporter fluorescence; stronger effect = lower value; some inactives read as strong as hits; AID 1053133;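 active = mCherry past -33% and 40 or more points under the early reporter, replicates agreeing; inconclusive = past -33% without that gap or agreement; tested in A549 cells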;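 also: scaled between vehicle wells and reference inhibitor wells; 23 nL library stock went into each well; one replicate is shown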
# Vaccinia inh Venus = recorded beside Vaccinia inh, whose call it bears; activity change (Venus), %; measured here: Venus reporter, other viral stage;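 negative = less Venus signal; first of two replicates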
# The depositor's hits bear a star; ? = inconclusive; . = no result given. An excerpt (hit frequency here may not be typical).
# The opening 7 entries, ahead of the listing:
entry	smiles	Vaccinia inh	Vaccinia inh Venus
1	Cc1ccccc1-c1cnc2c(c1)C(=O)N([C@@H](C)CO)C[C@@H](C)[C@H](CN(C)C(=O)c1cccnc1)O2	-1.6	-8.2
2	C[C@@H]1CN([C@H](C)CO)C(=O)Cc2cc(NC(=O)NC3CCCCC3)ccc2O[C@@H]1CN(C)S(=O)(=O)c1ccccc1	-1.7	-2.8
3	C[C@@H]1CN([C@@H](C)CO)C(=O)c2cc(NS(=O)(=O)c3ccc(F)cc3)ccc2O[C@@H]1CN(C)S(=O)(=O)c1ccc(Cl)cc1	-34.6	-20.4
4	O=C(c1ccccn1)N1C[C@@H]2N[C@H](C1)C2c1ccc(-c2ccccc2F)cc1 (stereo partly specified)	?	-9.6
5	C[C@H]1CN([C@@H](C)CO)C(=O)c2cc(NS(C)(=O)=O)ccc2O[C@H]1CN(C)C(=O)Nc1ccccc1	10.6	4.5
6	O=C(C[C@H]1CC[C@@H]2[C@H](COC[C@H](O)CN2C(=O)c2cnccn2)O1)NCc1ccccc1	12.3	9.6
7	CO[C@@H]1CN(C)C(=O)c2cc(NS(=O)(=O)c3ccc(Cl)cc3)ccc2OC[C@H](C)N(C)C[C@@H]1C	10.8	4.2

# The whole of this part, from the start:
entry	smiles	Vaccinia inh	Vaccinia inh Venus
1	Cc1ccccc1-c1cnc2c(c1)C(=O)N([C@@H](C)CO)C[C@@H](C)[C@H](CN(C)C(=O)c1cccnc1)O2	-1.6	-8.2
2	C[C@@H]1CN([C@H](C)CO)C(=O)Cc2cc(NC(=O)NC3CCCCC3)ccc2O[C@@H]1CN(C)S(=O)(=O)c1ccccc1	-1.7	-2.8
3	C[C@@H]1CN([C@@H](C)CO)C(=O)c2cc(NS(=O)(=O)c3ccc(F)cc3)ccc2O[C@@H]1CN(C)S(=O)(=O)c1ccc(Cl)cc1	-34.6	-20.4
4	O=C(c1ccccn1)N1C[C@@H]2N[C@H](C1)C2c1ccc(-c2ccccc2F)cc1 (stereo partly specified)	?	-9.6
5	C[C@H]1CN([C@@H](C)CO)C(=O)c2cc(NS(C)(=O)=O)ccc2O[C@H]1CN(C)C(=O)Nc1ccccc1	10.6	4.5
6	O=C(C[C@H]1CC[C@@H]2[C@H](COC[C@H](O)CN2C(=O)c2cnccn2)O1)NCc1ccccc1	12.3	9.6
7	CO[C@@H]1CN(C)C(=O)c2cc(NS(=O)(=O)c3ccc(Cl)cc3)ccc2OC[C@H](C)N(C)C[C@@H]1C	10.8	4.2
8	O=C(CC1CC1)N1CC2(C1)[C@H](c1ccccc1)[C@@H](CO)N2Cc1cccc(F)c1	3.3	14.4
9	O=C(N[C@H]1CC[C@H](CCNS(=O)(=O)Cc2ccccc2)O[C@@H]1CO)c1ccc2c(c1)OCO2	-9.1	-10.2
10	CO[C@@H]1CC[C@@H]2CCOc3c(C#N)cccc3C(=O)N(C)C[C@@H](OC)[C@@H](C)C(=O)N(C)C[C@H]1O2	15.6	15.0
11	C[C@@H]1CN([C@@H](C)CO)C(=O)c2cccc(NC(=O)C3CCOCC3)c2O[C@@H]1CN(C)Cc1ccc(-c2ccccc2)cc1	-7.6	-6.4
12	C[C@H](CO)N1C[C@H](C)[C@H](CN(C)Cc2ccccc2)Oc2ccc(NC(=O)Nc3ccccc3)cc2C1=O	-14.6	-8.5
13	Cc1ccc(S(=O)(=O)N(C)C[C@@H]2OCCCC[C@@H](C)Oc3ccc(NC(=O)Nc4cccc5ccccc45)cc3C(=O)N([C@@H](C)CO)C[C@H]2C)cc1	23.8	34.8
14	O=C(C[C@H]1CC[C@H](NC(=O)c2ccncc2)[C@@H](CO)O1)Nc1ccc(-c2ccccc2)cc1	4.8	2.2
15	Cc1ccc(S(=O)(=O)Nc2ccc3c(c2)C(=O)N([C@@H](C)CO)C[C@@H](C)[C@@H](CN(C)C(=O)NC2CCCCC2)O3)cc1	?	.
16	Cc1nn(C)cc1NC(=O)C[C@H]1CC[C@H]2[C@@H](COc3ccc(NC(=O)C4CCOCC4)cc3C(=O)N2C)O1	9.9	-5.0
17	N#C[C@@H]1[C@H](c2ccc(-c3cccc(F)c3)cc2)[C@@H](CO)N1C(=O)c1cccnc1	-31.1	-30.6
18	O=C(NC[C@H]1CC[C@H]2[C@H](CN2C(=O)C2CC2)O1)c1cnccn1	11.6	4.7
19	COc1ccccc1CN1[C@H](CO)[C@@H](c2ccccc2)C12CN(C(=O)Cc1ccccc1)C2	-5.6	7.1
20	C[C@@H]1CN([C@@H](C)CO)C(=O)CCCn2cc(nn2)CO[C@H]1CN(C)S(=O)(=O)c1cccs1	4.9	6.3
21	Cc1noc(C)c1S(=O)(=O)Nc1ccc2c(c1)C(=O)N([C@H](C)CO)C[C@H](C)[C@@H](CN(C)S(C)(=O)=O)OCCCC[C@@H](C)O2	6.9	7.4
22	COc1ccc(CN(C)C[C@H]2Oc3ccc(NC(=O)CCC(F)(F)F)cc3C(=O)N([C@H](C)CO)C[C@H]2C)cc1	1.0	-3.3
23	CC(=O)N1CCCCN2[C@H](CO)[C@H](c3ccc(-c4ccccc4)cc3)[C@@H]2C1	17.6	10.8
24	CC(C)NC(=O)Nc1ccc2c(c1)C(=O)N([C@H](C)CO)C[C@@H](C)[C@@H](CN(C)C(=O)CCC(F)(F)F)OCCCC[C@H](C)O2	13.4	2.3
25	CC(C)NC(=O)N(C)C[C@H]1OCCCC[C@@H](C)Oc2ccc(NC(=O)NC3CCCCC3)cc2C(=O)N([C@H](C)CO)C[C@H]1C	-8.8	-1.2
26	Cc1cccc(-c2ccc([C@@H]3[C@@H](CO)N4C(=O)CN(C(=O)c5ccc6c(c5)OCO6)C[C@H]34)cc2)c1	?	.
27	COCC#Cc1ccc([C@@H]2[C@@H](CO)N3C(=O)CN(C(=O)Nc4ccc(F)cc4)C[C@@H]23)cc1	5.3	5.4
28	COCC#Cc1ccc([C@H]2[C@@H](CO)N3CCCCN(S(=O)(=O)c4ccccc4C)C[C@H]23)cc1	?	.
29	COc1ccccc1S(=O)(=O)N[C@@H]1CC[C@H](CCNC(=O)C2CC2)O[C@@H]1CO	13.3	3.0
30	COc1ccccc1NC(=O)N[C@@H]1C=C[C@@H](CC(=O)N2CCC(Cc3ccccc3)CC2)O[C@H]1CO	?	.
31	C[C@H](CO)N1C[C@H](C)[C@H](CN(C)C(=O)Nc2ccc(F)cc2)OCCCC[C@H](C)Oc2ccc(NC(=O)Nc3cccc4ccccc34)cc2C1=O	16.3	8.3
32	COc1ccc(CN(C)C[C@H]2Oc3c(NC(=O)Nc4ccccc4)cccc3C(=O)N([C@@H](C)CO)C[C@@H]2C)cc1	-6.6	-8.4
33	COc1ccc(S(=O)(=O)N(C)C[C@@H]2Oc3ccc(NC(=O)CCCCCC(=O)Nc4ccccc4N)cc3CC(=O)N([C@H](C)CO)C[C@@H]2C)cc1	15.7	4.6
34	C[C@H](O)C#Cc1cnc2c(c1)C(=O)N([C@@H](C)CO)C[C@@H](C)[C@@H](CN(C)Cc1cccc(F)c1)O2	4.2	0.9
35	CCNC(=O)C[C@H]1CC[C@H]2[C@@H](COC[C@@H](O)CN2C(=O)Nc2cccc(OC)c2)O1	14.3	2.9
36	N#C[C@H]1[C@H](c2ccc(C#CC3CC3)cc2)[C@@H](CO)N1C(=O)c1cccc(F)c1	1.4	6.8
37	C[C@@H]1CCCCO[C@H](CN(C)C(=O)C2CCCCC2)[C@@H](C)CN([C@@H](C)CO)C(=O)c2cc(NC(=O)c3ccncc3)ccc2O1	-5.1	-7.2
38	COc1ccc(-c2ccc([C@@H]3[C@@H](CO)N4C(=O)CNC[C@H]34)cc2)cc1	20.4	12.4
39	CO[C@H]1CC[C@@H]2CCOc3ccc(C#N)cc3C(=O)N(C)C[C@@H](c3ccccc3)CC(=O)N(C)C[C@@H]1O2	8.3	2.2
40	CC(C)NC(=O)Nc1cccc2c1O[C@@H](CN(C)C(=O)NC1CCCCC1)[C@@H](C)CN([C@H](C)CO)C2=O	-13.9	-13.5
41	CO[C@H](CN(C)C(=O)Nc1ccc(F)cc1)[C@@H](C)CN(Cc1ccccc1Cl)[C@H](C)CO	-1.3	4.8
42	O=C(C[C@@H]1CC[C@H]2[C@@H](COC[C@@H](O)CN2S(=O)(=O)c2cccc(F)c2)O1)NCc1ccncn1	9.8	13.6
43	O=C1CN(Cc2ccc(F)cc2)C[C@@H]2[C@H](c3ccc(-c4ccccc4F)cc3)[C@H](CO)N12	13.5	8.0
44	O=C(NC1CCCC1)N1CCCCN2[C@@H](CO)[C@@H](c3ccc(-c4ccncc4)cc3)[C@@H]2C1	1.6	-5.0
45	O=C(C[C@H]1CC[C@@H](NS(=O)(=O)c2ccccc2)[C@@H](CO)O1)N1CCC(Cc2ccccc2)CC1	-21.7	-12.1
46	Cn1cnc(S(=O)(=O)N2C[C@@H](O)COC[C@@H]3O[C@@H](CC(=O)NC4CCC4)CC[C@H]32)c1	11.8	2.4
47	CCCN1[C@H](C(=O)OC)[C@@H](CO)[C@@H]2Cn3c(ccc(-c4ccccc4)c3=O)[C@@H]21	-5.4	-1.1
48	C[C@H]1CN([C@@H](C)CO)C(=O)c2cc(-c3ccccc3)cnc2O[C@@H]1CN(C)C(=O)NC1CCCC1	9.9	5.1
49	C[C@@H]1CN([C@H](C)CO)C(=O)CCCn2nncc2CO[C@H]1CN(C)S(=O)(=O)c1ccc(Cl)cc1	7.8	16.8
50	O=C(c1ccc(F)cc1)N1CCCCN2[C@H](CO)[C@@H](c3ccc(-c4ccc(F)cc4)cc3)[C@H]2C1	?	.
51	Cn1cnc(S(=O)(=O)N2C[C@H](O)COC[C@@H]3O[C@@H](CC(=O)NCc4cccc(F)c4)CC[C@H]32)c1	4.4	8.6
52	C[C@H]1CCCCO[C@@H](CN(C)Cc2ccc(C(=O)O)cc2)[C@@H](C)CN([C@@H](C)CO)C(=O)c2cc(NS(C)(=O)=O)ccc2O1	11.3	7.3
53	COc1ccc(NC(=O)N(C)C[C@@H]2Oc3ccc(NS(C)(=O)=O)cc3CC(=O)N([C@@H](C)CO)C[C@H]2C)cc1	-6.3	-10.2
54	C[C@H](CO)N1C[C@H](C)[C@H](CN(C)C(=O)Nc2cccc3ccccc23)Oc2c(NC(=O)NC3CCCCC3)cccc2C1=O	0.8	0.7
55	O=C(C1CCCC1)N1CC(=O)N2[C@@H](CO)[C@H](c3ccc(-c4ccccc4F)cc3)[C@@H]2C1	-9.8	-8.8
56	CO[C@H]1CN(C)C(=O)c2ccc(NC(=O)c3cc(C)on3)cc2OC[C@@H](C)N(C(C)=O)C[C@@H]1C	7.7	9.5
57	C[C@H]1CN([C@@H](C)CO)C(=O)c2cc(NC(=O)CCCN(C)C)ccc2O[C@@H]1CN(C)Cc1ccc(C(F)(F)F)cc1	0.5	-2.3
58	COCC(=O)Nc1ccc2c(c1)C(=O)N(C)C[C@@H](OC)[C@@H](C)CN(CC1CC1)[C@@H](C)CO2	7.5	4.9
59	C[C@@H]1CCCCO[C@H](CN(C)S(=O)(=O)c2ccccc2)[C@H](C)CN([C@@H](C)CO)C(=O)c2cc(NC(=O)C3CCCCC3)ccc2O1	-25.6	-6.0
60	CN(C)C(=O)C[C@@H]1C[C@@H]2c3cc(NS(=O)(=O)c4ccccc4)ccc3O[C@@H]2[C@H](CO)O1	8.7	8.8

# (next part)
entry	smiles	Vaccinia inh	Vaccinia inh Venus
61	CC(=O)N(C)C[C@@H]1Oc2cc(C#C[C@@H](C)O)ccc2S(=O)(=O)N([C@@H](C)CO)C[C@H]1C	2.1	6.4
62	CC(C)CC#Cc1ccc2c(c1)O[C@H](CN(C)C(=O)Nc1ccccc1)[C@H](C)CN([C@@H](C)CO)S2(=O)=O	?	.
63	C=CCN1C(=O)[C@@]2(O[C@@H](CCn3cc([C@H](O)c4ccccc4)nn3)[C@H]([Si](C)(C)c3ccc(OC)cc3)[C@H]2C)c2cc(N3C(=O)c4cccc5cccc3c45)ccc21	-18.7	-16.3
64	C/C=C/c1ccc([C@@H]2[C@@H](C#N)N(S(=O)(=O)c3cccc(F)c3)[C@@H]2CO)cc1	-7.6	1.0
65	COc1cc2c(cc1OC)CN(C(=O)[C@@H]1[C@H]3C(=O)O[C@H](c4ccccc4)[C@H](c4ccccc4)N3[C@H](c3ccccc3OCCO)[C@@]13C(=O)Nc1ccc(C#CC4(O)CCCCCC4)cc13)CC2	-16.2	-9.2
66	CO[C@H]1CN(C)C(=O)c2cc(NC(=O)CC(F)(F)F)ccc2OC[C@@H](C)NC[C@@H]1C	8.8	10.7
67	CCCNC(=O)N1CC2(C1)CN(C(=O)CC)[C@@H](CO)c1c2c2ccc(OC)cc2n1C	24.8	4.9
68	Cc1ccccc1S(=O)(=O)N1C[C@@H](O)COC[C@H]2O[C@@H](CC(=O)N3CCN(C)CC3)CC[C@@H]21	-8.3	-7.0
69	C[C@@H]1CN([C@H](C)CO)C(=O)c2cc(C#CC3CCCCC3)cnc2O[C@@H]1CN(C)Cc1cccnc1	-6.7	-8.5
70	COc1ccccc1CNC(=O)C[C@H]1C[C@@H]2c3cc(N(C)C)ccc3O[C@@H]2[C@@H](CO)O1	-9.6	6.3
71	CC(=O)N(C)C[C@@H]1Oc2ncc(-c3ccccc3C)cc2C(=O)N([C@@H](C)CO)C[C@@H]1C	5.2	8.4
72	CC(C)NC(=O)Nc1ccc2c(c1)C(=O)N([C@H](C)CO)C[C@@H](C)[C@H](CN(C)CC1CCCCC1)O2	-2.1	-2.8
73	OC[C@H]1[C@H](c2ccc(C#CC3(O)CCCC3)cc2)[C@@H]2CN(Cc3cccnc3)CCCCN12	11.7	0.8
74	COc1cccc(-c2cnc3c(c2)C(=O)N([C@H](C)CO)C[C@@H](C)[C@H](CN(C)Cc2ccccc2)O3)c1	-18.3	-11.3
75	CC(=O)N1[C@@H]2Cn3c(ccc(C4=CCCC4)c3=O)[C@H]1[C@@H](C(=O)NC1CCC1)[C@@H]2CO	11.3	2.6
